Screening data from PubChem BioAssay.
Cruzain noTriton: blocks cruzain activity in detergent-free assay; P25779; purified cruzain, Z-FR-AMC fluorescence, no detergent; Potency, µM, inactives show max response, negative = inhibition, actives largely listed as inhibitors; 200,000 tested, 2.3% active;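 further: plate controls were enzyme without inhibitor for no effect and buffer without enzyme for full effect; nearly all actives have a fitted effect of over 40% in size; top concentration of the series not given in the record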
Target sequence (P25779 123-467 limits assumed): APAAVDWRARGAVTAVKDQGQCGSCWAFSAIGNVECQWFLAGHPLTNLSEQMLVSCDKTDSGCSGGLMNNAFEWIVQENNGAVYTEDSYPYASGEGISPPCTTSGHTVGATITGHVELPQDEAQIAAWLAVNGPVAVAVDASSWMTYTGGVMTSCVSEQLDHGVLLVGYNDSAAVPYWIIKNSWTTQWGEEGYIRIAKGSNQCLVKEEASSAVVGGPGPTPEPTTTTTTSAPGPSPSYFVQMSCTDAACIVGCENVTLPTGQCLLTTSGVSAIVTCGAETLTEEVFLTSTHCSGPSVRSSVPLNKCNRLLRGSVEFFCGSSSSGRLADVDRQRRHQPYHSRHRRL
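Detergent-free condition (0.00005% Triton X-100) in acetate buffer pH 5.5 with DTT. 1.5 nM enzyme and compound were pre-mixed 15 min, then 2 uM Z-FR-AMC substrate added; reaction progress from fluorescence change between first and third reads (60 s).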
Cruzain Triton: cruzain (T. cruzi) inhibition with detergent | P25779 | purified cruzain, Z-FR-AMC fluorescence, 0.01% Triton | Potency, µM, inactives show max response, negative = inhibition, most hits filed as inhibitors | 200,000 tested, 0.43% active | AID 1478;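 further: plate controls were neutral wells for no effect and buffer without enzyme for full effect; nearly all actives have a fitted effect of over 40% in size; top concentration of the series not given in the record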
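Read-out: AMC fluorescence (360 nm excitation, 450 nm emission), four reads over 2 min, first-to-third difference used. Conditions: cruzain 1.5 nM, Z-FR-AMC 2 uM, pH 5.5 acetate, 5 mM DTT, 0.01% Triton X-100.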
LASV entry inh: Lassa virus entry inhibition; Lassa virus pseudotype entry inhibition, cell reporter; control for the full effect not named in the record; Potency, µM (top dose mostly 37.9 µM), for inactives: at the top dose activity change, negative = inhibition, hits mostly inhibitors; 300,000 tested, 1.2% active; active means well fitted inhibition curve with a large enough effect; inconclusive means small, poorly fitted or top-dose-only effect, or effect the other way; inactive means flat fitted curve, though single readings scatter; tested in HEK293 cells; further: on the % scale 0 is the no-effect control and ±100 the full control effect; nearly all actives have a fitted effect of over 50% in size; luciferase read-out
StopGo reporter: FMDV 2A StopGo reporter, luciferase signal. human cells with a luciferase reporter of 2A StopGo recoding; control for the full effect not named in the record. Potency, µM (series often up to 57.9 µM), for the others: at the top dose signal change, negative = less light. 410,000 tested, 1.2% active. AID 1159524; active = well fitted falling curve with a large enough effect; inconclusive = small, poorly fitted or top-dose-only effect; inactive = no such curve, though single readings can be large or run the other way; tested in HEK293T cells; further: on the % scale 0 is the no-effect control and ±100 the full control effect; nearly all actives have a fitted effect of over 45% in size; luciferase light after 4 h
MARV entry inh: inhibitors of Marburg virus binding or cell entry; Marburg virus pseudotyped entry inhibition, cell reporter; control for the full effect not named in the record; about a third of the inactives were read at about 46 µM; Potency, µM (top dose mostly 37.8 µM), for inactives: at the highest dose activity change, negative = inhibition, most hits filed as inhibitors; 300,000 tested, 1.8% active; AID 540276; active = well fitted inhibition curve with a large enough effect; inconclusive = small, poorly fitted or top-dose-only effect, or effect the other way; inactive = flat fitted curve, though single readings scatter; tested in HEK293 cells; about a fifth of its hits are not listed in these tables; further: on the % scale 0 is the no-effect control and ±100 the full control effect; luciferase read-out
NS1 inh: inhibitors of influenza NS1 protein function | S. cerevisiae slowed by influenza A NS1, growth recovery by OD600 | Potency, µM (titrated, usually from 46.1 µM), inactives show top-dose activity, positive = more growth | 270,000 tested, 0.4% active | AID 2326; active means well fitted rising curve with a large enough effect; inconclusive means small, poorly fitted or top-dose-only effect; inactive means no such curve, though single readings can be large or run the other way; further: nearly all actives have a fitted effect of over 50% in size
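A cell-based growth assay was used: compounds that relieve NS1-induced slow growth of budding yeast raise OD600. Assay medium was yeast nitrogen base with ammonium sulphate and -URA supplement, pH 6.0, with 2% galactose.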
SARS PLP yeast: blocks SARS-CoV papain-like protease in a yeast assay. S. cerevisiae expressing SARS-CoV PLpro, growth rescue; control for the full effect not named in the record. Potency, µM (series often up to 32.9 µM), inactives show top-dose activity, positive = growth rescue. 330,000 tested, 0.19% active. AID 485353; active means well fitted rising curve with a large enough effect; inconclusive means small, poorly fitted or top-dose-only effect; inactive means no such curve, though single readings can be large or run the other way; further: 0% is about no effect; nearly all actives have a fitted effect of over 55% in size; growth read by luminescence after 48 h
RE007 growth inh: less growth of the S. pombe RE007 Vpr strain; S. pombe RE007 Vpr strain, BacTiter-Glo ATP luminescence, 24 h; control for the full effect not named in the record; Potency, µM (doses to about 92.2 µM), for inactives: at the highest dose activity change, negative = less growth; 360,000 tested, 0.21% active; active = well fitted falling curve with a large enough effect; inconclusive = small, poorly fitted or top-dose-only effect; inactive = no such curve, though single readings can be large or run the other way;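 further: on the % scale 0 is the no-effect control and ±100 the full control effect; nearly all actives have a fitted effect of over 50% in size; the assay follows cell death caused by Vpr and the record does not say whether a fall means rescue or toxicity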
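Fission yeast strain RE007, carrying one chromosomally integrated HIV-1 vpr copy, was seeded at OD 0.01 in PMG+AL medium with 23 nL pinned compound. After 24 h at 30 °C and 99% humidity, viability was read by BacTiter-Glo luminescence.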
Numbers without * were called inactive; ? = inconclusive; nt = no result given; & = joins results of further samples; [ ] = another dose, or the depositor's remark. Unless noted, the call rests on the fitted dose curve; in most records, active means well fitted curve in the direction sought with a large enough effect; inconclusive means small, poorly fitted or top-dose-only effect, or another doubt; inactive means no such curve, though single readings can be large; an effect the other way counts as inactive or inconclusive. Potency means the concentration at half of the fitted maximal effect.

Every second line gives: Cruzain noTriton	Cruzain Triton	LASV entry inh	StopGo reporter	MARV entry inh	NS1 inh	SARS PLP yeast	RE007 growth inh
- Cc1[nH][nH]c(=O)c1C(c1c(C)[nH][nH]c1=O)c1cn(Cc2cccc3ccccc23)c2ccccc12
    -0.4%	1.9%	?	?	?	12.6µM*	-9.8%	-7.2%
- CCN(Cc1ccccc1)S(=O)(=O)c1ccc2oc(C(=O)O)c(C)c2c1
    -6.5%	-2.1%	-0.9%	1.4%	3.2%	10.7%	7.1%	10.5%
- COc1ccc(S(=O)(=O)Nc2ccc(OCC(=O)O)cc2)c2ccccc12
    nt	nt	-26.5%	0.2%	?	2.2%	0.6%	13.2%
- CN(C(=O)c1cc(S(=O)(=O)N2CCCCC2)c[nH]1)C1CCCCC1
    nt	nt	nt	?	nt	11.3%	6.9%	-4.1%
- CCCC(=O)NCc1ccc2c(c1)cc(C)n2C
    4.3%	6.7%	3.0%	21.8%	-0.5%	?	-12.2%	0.9%
- CO/N=C(/CS(=O)(=O)Cc1ccccc1Cl)c1ccc(Cl)cc1Cl
    1.9%	-3.4%	0.0%	nt	?	-16.2%	-12.2%	0.5%
- COC(=O)c1ccc(CN(C)S(=O)(=O)c2cccs2)cc1
    nt	nt	15.7%	0.0%	17.1%[46.1 µM]	2.8%	-0.3%	32.4%
- O=C(NNc1ccccn1)c1ccccc1CC[N+](=O)[O-]
    nt	nt	15.2%	37.1%[activator]	26.4%[46.1 µM]	nt	-3.3%	-19.7%
- CN(C)S(=O)(=O)c1cccc(C(=O)Nc2ccc(Cl)cn2)c1
    7.7%	6.7%	-17.5%	nt	?	-3.4%	9.4%	12.8%
- CCOc1ccc(CCNC(=O)c2nn(C)c3c2CSc2ccccc2-3)cc1
    -6.1%	-2.9%	3.4%[46.1 µM]	-24.0%	-19.1%[46.1 µM]	nt	nt	nt
- O=C1NC(c2ccccc2Cl)=N/C1=C/c1ccco1
    nt	nt	?	40.4%[activator]	20.2%[46.1 µM]	-3.7%	-1.2%	?
- CCC(CC)c1nnc(NC(=O)C2CCCO2)s1 (stereo unspecified)
    nt	nt	nt	21.9%	24.3%[46.1 µM]	nt	0.6%	6.2%
- COc1ccc(-n2cnc3sc4c(c3c2=O)CCCC4)cc1
    nt	nt	-12.3%[46.1 µM]	7.0%	4.4%[46.1 µM]	-2.2%	-0.4%	?
- Cc1ccccc1/C=C/c1nc2ccccc2c(=O)[nH]1
    nt	nt	?	3.3%	?	-1.1%	-1.4%	-7.2%
- COc1ccc(C2(c3ccc(OC)cc3)NC(=O)N(CC(=O)NC3CCCC3)C2=O)cc1
    nt	nt	?	8.2%	-3.2%	nt	0.0%	1.8%
- Cc1c(C(=O)NCCSCc2ccc(Cl)cc2Cl)cccc1[N+](=O)[O-]
    9.9%	-5.5%	-28.4%	?	-29.5%	7.0%	-4.2%	-3.2%
- Cc1nccn1CC(=O)N/N=C/c1cccc(O)c1
    -6.3%	1.9%	8.2%	-10.1%	?	3.2%	-9.7%	-12.3%
- CCc1ccc(C(=O)COC(=O)CCc2nc3ccccc3c(=O)[nH]2)cc1
    -28.6%	-2.7%	?	-25.6%	-14.4%	-4.4%	-12.5%	1.0%
- COc1ccc(C)cc1-n1nnnc1SCC(=O)Nc1cc(C)on1
    3.0%	-3.9%	-13.4%	-16.0%	-6.2%	-0.7%	-4.7%	-6.7%
- Cc1nc2ccccc2c(=O)n1NCc1cc(Br)cs1
    0.6%	-1.2%	1.7%	nt	-23.9%	-4.6%	2.4%	20.5%
- Cn1c2ccccc2c(=O)c2ccc(C#Cc3ccccn3)cc21
    nt	nt	nt	9.5%	nt	6.0%	-10.2%	-9.7%
- CN(C)c1ccc(NC(=O)CN2C(=O)c3ccccc3C2=O)cc1
    nt	nt	?	52.9%[activator]	2.6%	2.4%	2.8%	1.5%
- Cc1ccc(Nc2nc3ccc(C(=O)c4ccccc4)cc3n3c(C)nnc23)c(C)c1
    7.9%	-2.1%	-1.5%[46.1 µM]	-15.2%	nt	nt	nt	nt
- CCCCOc1ccc(NC(=O)c2cc(F)c(F)cc2Cl)cc1
    -5.0%	-4.9%	17.4%	6.2%	?	-9.7%	-4.5%	15.5%
- Cc1cc(NC(=O)COc2ccccc2)n(-c2ccccc2)n1
    -15.0%	-12.9%	2.9%	-11.7%	?	-62.7%	5.2%	-10.3%
- COc1cc(OC)cc(C(=O)N2CC(=O)Nc3ccc(Cl)cc3C2c2ccccc2)c1 (stereo unspecified)
    4.5%	-6.9%	4.2%[46.1 µM]	-1.6%	16.3%[46.1 µM]	nt	nt	nt
- CC1CCC(NC(=O)Nc2cccs2)CC1 (stereo unspecified)
    4.2%	-1.7%	16.6%	2.5%	28.0%	-0.7%	-8.5%	-8.0%
- CN(Cc1nc2c(s1)CCCC2)C(=O)CCc1nnc(-c2ccc3c(c2)OCO3)o1
    nt	nt	1.3%	1.6%	-2.8%[46.1 µM]	-3.0%	-3.2%	4.4%
- CCC(C)c1ccccc1N1CC(C(=O)NCCc2ccc(OC)c(OC)c2)CC1=O (stereo unspecified)
    nt	nt	-10.8%	-15.3%	?	nt	0.5%	5.8%
- O=C(CC1CCCCC1)NCc1ccccc1Cl
    nt	nt	?	36.5%[activator]	3.6%[46.1 µM]	-0.8%	-0.7%	2.4%
- CCOc1ccccc1CNC(=O)c1cc2occc2n1C
    -2.3%	-11.9%	nt	1.0%	nt	3.9%	1.9%	-13.4%
- COc1ccc(NC(=O)C(C)N(c2ccc(C)cc2)S(C)(=O)=O)c(OC)c1 (stereo unspecified)
    -0.3%	-1.8%	?	-11.0%	5.0%	5.2%	-1.4%	-13.2%
- CCc1ccc(OCC(=O)N/N=C2\CC(=O)c3ccccc32)cc1
    -26.4%	0.8%	nt	nt	4.2%	21.6%	-2.0%	nt
- Cc1cc(NC(=O)C2CCCO2)ccc1Br (stereo unspecified)
    nt	nt	?	1.2%	8.4%[46.1 µM]	3.1%	1.6%	-15.2%
- CN(C)CCN1CC(O)=C(c2nc3ccccc3s2)C1=N
    nt	nt	-14.3%	-20.7%	-27.0%[46.1 µM]	1.4%	-0.5%	14.2%
- O=S(=O)(NCC(c1cccnc1)N1CCN(Cc2ccccc2)CC1)c1ccc(Cl)cc1 (stereo unspecified)
    nt	nt	-17.7%[46.1 µM]	13.3%	?	14.2%	-6.7%	-1.4%
- Cc1ccc(OCC(=O)NNC(=O)Cn2nnc(-c3ccccc3)n2)cc1
    nt	nt	-0.4%	-11.4%	-1.3%[46.1 µM]	5.3%	1.8%	0.0%
- COc1cc2c(cc1OC)C(C(=O)Nc1cc(C)c(OC)c(C)c1)CC(=O)N2 (stereo unspecified)
    nt	nt	14.3%	3.6%	-6.5%	10.0%	5.1%	-7.4%
- Cc1cccc(N2CCN(C(=O)c3c(C)oc4ncnc(N5CCOCC5)c34)CC2)c1C
    -14.2%	0.7%	-2.6%[46.1 µM]	-22.4%	nt	nt	nt	nt
- O=C(CN1C(=O)C2CCCCC2C1=O)Nc1nc2ccc(F)cc2s1 (stereo unspecified)
    nt	nt	-7.9%	-6.1%	19.7%[46.1 µM]	nt	2.1%	-9.3%
- CCCOc1ccc(/C(CC)=N/NC(=O)C2(C)CC2(Br)Br)cc1 (stereo unspecified)
    2.5%	-5.1%	-3.4%	-18.3%	3.5%	4.5%	-1.6%	-1.8%
- COc1cc(C(=O)Nc2cccc(-c3nc4cc(C)ccc4o3)c2)cc(OC)c1OC
    ?	0.3%	1.8%&7.4%	24.1%	8.1%&-5.6%	28.8%	10.7%	-10.7%
- Cc1ccc(S(=O)(=O)N(C)C)cc1NC(=O)COC(=O)c1sc2cc(Cl)ccc2c1Cl
    nt	nt	nt	-12.1%	nt	-9.4%	-1.0%	8.7%
- CCOc1ccccc1NC(=O)CS(=O)(=O)c1cn(CC(=O)N2CCOCC2)c2ccccc12
    nt	nt	-14.9%	-10.6%	17.0%	-14.5%	4.9%	-8.7%
- COc1ccc(NC(=O)c2ccc(Cl)cc2)c[n+]1[O-]
    nt	nt	13.4%	21.4%	-2.6%	1.8%	0.0%	-17.4%
- CCOc1ccc(-n2cnc3sc4c(c3c2=O)CCCC4)cc1
    nt	nt	-15.8%	2.9%	?	-9.1%	-1.6%	-5.2%
- COc1ccc(S(=O)(=O)NCC2CCCN(C(=O)C3CCCC3)C2)cc1 (stereo unspecified)
    nt	nt	nt	23.6%	nt	-7.0%	-0.4%	0.9%
- Cc1cc(C)cc(NS(=O)(=O)c2ccc(NC(=S)NC(=O)c3ccc(Br)o3)cc2)c1
    ?	-0.2%	-22.2%	0.0%	15.8µM*	11.5%	3.6%	17.2%
- Cc1cc(C)cc(NC(=S)N2CCN(c3ccccn3)CC2)c1
    nt	nt	nt	41.6%[activator]	nt	-15.1%	0.0%	1.7%
- O=C(c1ccccc1)N(Cc1ccco1)C1CCS(=O)(=O)C1 (stereo unspecified)
    4.3%	4.3%	-3.5%	-3.0%	2.7%	-1.9%	7.0%	-13.7%[3.69 µM]
- COC(=O)c1ccc(C(=O)OC)c(NC(=O)c2cccnc2)c1
    nt	nt	22.4%	-8.6%	?	2.2%	2.0%	23.5%
- COc1cc(Cc2cc(N)nc(N)n2)cc(OC)c1OC
    nt	nt	14.2%[46.1 µM]	11.9%	-5.9%[46.1 µM]	-5.8%	0.4%	-12.6%
- CCCCC(=O)NCCc1ccc(S(N)(=O)=O)cc1
    -12.5%	5.8%	-1.9%	-3.5%	0.4%	3.8%	-1.6%	5.6%
- CCOc1cc(C(=O)OC(C)C(=O)Nc2ncc(Cl)cc2Cl)ccc1OCC(=O)N1CCOCC1 (stereo unspecified)
    5.3%	-1.6%	6.0%	-5.6%	14.0%	-3.9%	0.1%	0.8%
- Cc1nn(CC(=O)NCCc2ccccc2)c(=O)c2ccccc12
    -0.4%	0.6%	0.4%	-16.6%	0.9%	-0.6%	-0.5%	-14.0%
- OCCN(CC(O)COc1ccccc1)CC(O)Cn1ccc2ccccc21 (stereo unspecified)
    -5.7%	3.5%	-19.0%	-11.8%	18.3%	0.4%	-15.3%	19.1%
